# High-throughput results deposited in PubChem by Johns Hopkins Ion Channel Center.
# KCNQ2 enhance – KCNQ2 (rat) channel potentiation; O88943; CHO-K1 KCNQ2, FluxOR thallium flux fluorescence; stronger effect = higher value; B-score at 10 µM; 310,000 compounds, 0.54% hits; AID 2239;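 active = fluorescence ratio B-score at least 3 SD of library B-scores, with initial fluorescence B-score within 3 SD, cut at about 5.3 in these data; same plate scores as AID 2156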;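 note: B-score of peak minus minimum over baseline fluorescence ratio after K+ and Tl+ stimulus; positive B-score means potentiation of KCNQ2 with more thallium influx and brighter signal; only the inactives scoring about 0 or higher are listed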
# Target sequence (O88943 whole entry, looked up): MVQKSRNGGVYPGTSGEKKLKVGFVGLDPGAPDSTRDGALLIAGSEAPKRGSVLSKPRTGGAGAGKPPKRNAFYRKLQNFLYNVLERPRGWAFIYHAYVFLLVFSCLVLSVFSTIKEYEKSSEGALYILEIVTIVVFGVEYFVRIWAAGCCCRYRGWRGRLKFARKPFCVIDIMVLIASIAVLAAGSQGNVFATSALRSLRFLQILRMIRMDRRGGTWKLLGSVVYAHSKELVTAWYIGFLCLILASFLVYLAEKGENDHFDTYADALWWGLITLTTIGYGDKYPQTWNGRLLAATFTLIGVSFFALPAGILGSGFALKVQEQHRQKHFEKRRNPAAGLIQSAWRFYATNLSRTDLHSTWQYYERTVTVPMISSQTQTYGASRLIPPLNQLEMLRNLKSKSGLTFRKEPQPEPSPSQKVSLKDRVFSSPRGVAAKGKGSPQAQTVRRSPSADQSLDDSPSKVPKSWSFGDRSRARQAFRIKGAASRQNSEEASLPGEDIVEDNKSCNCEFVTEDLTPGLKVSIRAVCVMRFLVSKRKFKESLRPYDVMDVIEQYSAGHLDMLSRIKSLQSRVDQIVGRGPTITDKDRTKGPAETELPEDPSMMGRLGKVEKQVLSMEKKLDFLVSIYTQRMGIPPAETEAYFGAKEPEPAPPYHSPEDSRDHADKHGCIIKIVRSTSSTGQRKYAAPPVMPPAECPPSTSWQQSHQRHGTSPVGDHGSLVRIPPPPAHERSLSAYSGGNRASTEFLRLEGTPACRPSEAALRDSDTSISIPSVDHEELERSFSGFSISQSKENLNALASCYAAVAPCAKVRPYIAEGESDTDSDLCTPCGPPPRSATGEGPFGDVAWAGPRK
# KCNQ2 enhance baseline – second read-out of KCNQ2 enhance, no call of its own (marks repeat the call); B-score; compound at 10 µM; measured here: initial fluorescence intensity artifact check;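 brightness before thallium and not channel activity; 0 = typical well and far values either way flag optical interference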
# * = called active by the depositor. Some of the compounds tested (hit frequency here may not be typical).
SMILES,KCNQ2 enhance,KCNQ2 enhance baseline
O=C(C1CCN(S(=O)(=O)c2cccc3cccnc23)CC1)N1CCN(C2CCCC2)CC1,1.97,-1.99
O=C(NC1CCCCC1)N1CCCC(CNS(=O)(=O)Cc2ccccc2)C1 (stereo not drawn),1.26,0.15
Nc1nnnn1/N=C/c1ccccc1OCc1ccc(Cl)cc1Cl,1.17,-0.01
C=CCc1c(C)nc(SCC(N)=O)[nH]c1=O,0.92,-0.03
COCCn1c(C)cc(/C=C2/NC(=O)N(c3ccc(Cl)cc3)C2=O)c1C,1.32,-0.13
COCCNC(=O)CSc1nnc(CCCN2C(=O)c3cccc4cccc(c34)C2=O)n1-c1ccccc1,1.83,-0.07
Cn1c(=O)oc2cc(S(=O)(=O)N3CCC(C(=O)NCc4cccs4)CC3)ccc21,0.89,-0.03
O=C(c1ccco1)n1nc(-c2ccccc2)nc1SCc1ccccc1,0.03,0.09
c1ccc(N2CCN(c3ncnc4c3oc3ccccc34)CC2)cc1,1.41,-0.54
O=C1NC(=Nc2ccccc2)CS1,0.12,0.67
O=C(Nc1cccc(OC(F)(F)F)c1)c1ccc(Br)o1,10.9*,-1.56*
CCCCn1c(N)c(N(CC(C)C)C(=O)CN2C(=O)C3CCCCC3C2=O)c(=O)[nH]c1=O (stereo not drawn),0.41,0.23
Cc1cc2nc(N3CCN(C(=O)c4cccs4)CC3)sc2cc1C,1.59,-1.42
Brc1ccc(-c2cnc(-c3cccs3)o2)cc1,1.33,-0.25
COc1cc(Cl)ccc1OCc1cc(C(=O)N2CCCC(OC)C2)no1 (stereo not drawn),0.28,-1.16
COc1cc(OC)c2ccc(=O)oc2c1C(CCN1CCCCC1)c1ccc(N(C)C)cc1 (stereo not drawn),1.28,-1.19
CCCOc1ccc(/C=N\NC(=O)CCc2n[nH]c(=O)[nH]c2=O)cc1OC,0.79,0.58
CCc1cc(-c2nnc(SCC(=O)NC3CC3)n2C)cs1,0.26,-0.95
COc1ccc(NS(=O)(=O)c2cccc(C(=O)NCCCn3ccnc3)c2)cc1,0.19,0.9
COc1ccc(-c2onc(C)c2C)cc1S(=O)(=O)NCCc1ccco1,0.4,0.13
CCc1ccc(NC2=NCC(c3ccccc3)S2)cc1 (stereo not drawn),0.93,0.98
COc1ccc(C(C(=O)NC2CCCCC2)N(C(=O)c2snc(C(N)=O)c2N)c2ccc(OC)cc2OC)cc1 (stereo not drawn),0.59,-1.81
COc1ccc(-c2cc(C(=O)Nc3ccc(C)cc3)no2)cc1,1.62,1.38
N#CC1=C(S)N(c2ccccc2)C(c2ccco2)NC1=O (stereo not drawn),0.89,-0.21
CCOc1cc(/C=C2\C(=N)N3N=C(CC)SC3=NC2=O)ccc1OCCOc1ccc(NC(C)=O)cc1,1.79,-0.77
Cc1ccc(SCC(=O)OCC(=O)N(C)CC(=O)Nc2ccc(F)cc2)cc1,2.95,0.59
CN(C)/C=C1/C(=O)Nc2ccccc21,0.46,0.4
COc1cccc(NC(=O)CSc2ncc(S(=O)(=O)c3ccccc3)c(=O)[nH]2)c1,1.98,-0.09
O=C(NCC(O)c1ccc([N+](=O)[O-])cc1)c1cccc(S(=O)(=O)N2CCCC2)c1 (stereo not drawn),0.88,1.17
Cc1ccc(OCCOc2ccc(Br)cc2/C=N\NC(N)=O)cc1,1.22,2.61
CCN(C(=O)CSc1ccc2c(c1)OCCO2)C1CCS(=O)(=O)C1 (stereo not drawn),0.07,0.36
O=C(CSc1nnc(Cn2cnc3ccccc32)o1)Nc1cccc2ccccc12,1.16,-0.2
Cc1cccc(CNc2ccc(C(CC(N)=O)NC(=O)c3ccccc3)cc2[N+](=O)[O-])c1 (stereo not drawn),1.3,1.22
CC1(C)Cc2cccc(OCC(O)CN3CCN(c4ccccn4)CC3)c2O1 (stereo not drawn),1.01,-0.38
CN(C)CCNC(=O)c1coc(=O)c(Br)c1,0.99,1.52
CCC(=O)Nc1nonc1-c1nc2ccccc2n1CC(C)C,0.22,2.58
O=c1[nH]c(-c2ccccc2)c(-c2ccccc2)o1,0.05,0.76
C=CCn1c(NC(=O)c2ccccc2)nc2ccccc21,0.12,-1.08
C=CCn1c(NCCc2ccccc2)nc2c1c(=O)n(C)c(=O)n2C,1.95,-0.09
Cc1ccc(C(=O)NCCC(=O)N2CCOCC2)cc1,0.42,1.68
COC(=O)c1ccc(NC(=O)c2c(C(=O)Nc3ccccc3)sc3nc(C)cc(=O)n23)cc1,0.67,3.11
CCCCN(C(=O)NC(=O)Nc1ccccc1OCC)S(C)(=O)=O,0.98,0.86
Cc1ccc(NC(=O)C2CCCN2S(=O)(=O)c2ccc(F)cc2)c(C)c1 (stereo not drawn),0.78,-1.49
Cc1ccc(NC(=O)C(=O)NCCN2CCN(C(=O)C(c3ccccc3)c3ccccc3)CC2)cc1,0.62,-0.37
O=C(Cn1ncc2c3ccccc3n(Cc3ccccc3F)c2c1=O)NCCN1CCOCC1,0.24,1.03
Cn1c(=O)c2c(nc(SCC(=O)O)n2Cc2cc3c(cc2Cl)OCO3)n(C)c1=O,2.49,0.04
Cc1cc(NC(=O)CSc2nc3c(c(=O)n2CCc2ccccc2)SC(C)C3)no1 (stereo not drawn),0.28,0.71
Cc1ccc(N(CC(=O)NC2CCCCC2)C(=O)CCCC(=O)Nc2ccccn2)c(C)c1,0.98,0.15
CN1CCN(S(=O)(=O)c2ccc(Br)s2)CC1,0.15,0
N#C/C(=N\Nc1ccc(F)cc1)C(=N)N1CCCCC1,0.97,-2.1
# Later entries
SMILES,KCNQ2 enhance,KCNQ2 enhance baseline
CC(Nc1nc(-c2ccc3c(c2)NC(=O)CO3)cs1)c1ccccc1 (stereo not drawn),0.01,-1.16
O=C1CC(c2ccco2)CC(O)=C1C=NCCN1CCN(C2CC(=O)N(c3ccccc3)C2=O)CC1 (stereo not drawn),0.68,0
O=C(c1ccccc1Cl)N1CCC(N2CCC(C(=O)N3CCCC3)CC2)CC1,0.02,1.08
CCOC(=O)c1c(C)c(C(=O)NCC2CCCO2)c(C)n1CC (stereo not drawn),1.08,2.87
CC(=O)[C@@]12O[C@@H]1C[C@H]1[C@@H]3CC[C@H]4C[C@@H](O)CC[C@]4(C)[C@H]3CC[C@@]12C,0.33,-2.23
Cc1nc(N)c(C#N)c(-c2cccnc2)c1C,0.09,0.88
COc1ccc(N2CCN(CCCNC(=O)c3cc4sccc4n3C)CC2)cc1,0.02,-1.22
Cc1cccc(NC(=O)COc2ccc(/C=N\n3cnnc3)cc2)c1,3.13,0.06
CC1CC(C)CN(CCCNC(=O)CCC(=O)N2CCOc3ccccc32)C1 (stereo not drawn),0.07,1.64
CCOC(=O)Cc1csc(N/N=C/c2ccc(Cl)cc2)n1,0.52,-0.04
CC(C)CCNC(=O)C1CC(c2ccccc2C(F)(F)F)=NO1 (stereo not drawn),0.19,2.14
Cc1ccc(CCNC(=O)C2CCCN(c3ncnc4c3nc3n4CCCCC3)C2)cc1 (stereo not drawn),0.5,-0.98
CCCc1cc(=O)oc2c(CNc3ccc(OCC)cc3)c(O)ccc12,0.19,-0.82
CCn1c(SCC(=O)NCCOC)nc2sc3c(c2c1=O)CCCC3,0.62,-0.86
COc1cc(OC)cc(C(=O)Nc2nc3ccc(S(C)(=O)=O)cc3s2)c1,1.07,-0.69
C#CCOCCOCCOCCNc1nc(N2CCN(C(=O)[C@H](CCC(=O)O)n3cc(C(N)Cc4ccc(O)cc4)nn3)CC2)nc(N2CCN(C(=O)[C@H](Cc3ccc(O)cc3)n3cc(C(N)CC(C)C)nn3)CC2)n1 (stereo partly drawn),0.46,-0.16
Cc1ccc(Nc2nc(N)c([N+](=O)[O-])c(N3CCCC(C)C3)n2)cc1C (stereo not drawn),1.62,-0.27
COc1ccc(/C=N/Nc2ccccn2)cc1OC,2.41,-0.69
COc1ccc(-c2cnc(NCc3cc4c(cc3[N+](=O)[O-])OCO4)n2C)cc1,0.37,3.03
CCCN(CC(=O)Nc1ccccc1C)C(=O)c1ccc(C(=O)c2ccccc2)cc1,0.52,0.01
CC(=O)Oc1ccc(/C=N\NC(=O)c2cc3c(ccc4ccccc43)o2)cc1,0.01,-0.09
O=S(=O)(c1ccccc1)N1CCN(C(=S)NCCCN2CCOCC2)CC1,0.59,-0.02
CC(C)OC(=O)N(C)c1ccc(C(O)(C(F)(F)F)C(F)(F)F)cc1,0.31,-0.35
Cc1cccc(NC(=O)C2CCN(S(=O)(=O)c3c(C)[nH]c(=O)[nH]c3=O)CC2)c1,0.26,-1.77
Cc1ccc(C(C)C)c(OCCNS(C)(=O)=O)c1,1.37,0.39
O=[N+]([O-])c1ccc(OCc2cnc(Cl)s2)c([N+](=O)[O-])c1,2.23,-1.29
CN(C)S(=O)(=O)c1ccc(C(=O)OCc2nnc(-c3ccccc3)o2)cc1,0.8,-1.19
O=C(COC(=O)C1=Cc2ccccc2OC1)NCc1ccccc1,0.85,-1.43
Cc1cc(SCc2ccccc2F)nc(=O)[nH]1,0.09,-1.53
Cc1cc(C(=O)Nc2nc3c(s2)CCCC3)no1,0.01,-0.16
CCCCC/S(CC1CC1(Cl)Cl)=N\S(=O)(=O)c1ccc(C)cc1 (stereo not drawn),0.28,-0.14
Cc1ccccc1NC(=O)CN(c1ccc(F)cc1)S(C)(=O)=O,0.06,-1.34
O=c1cc(-c2ccccc2)n(S(=O)(=O)c2ccc3ccccc3c2)o1,1.53,0.24
C/C(=N\NC(=O)C(C)Sc1ccccc1)C(C)(C)C (stereo not drawn),0.63,-1.8
CCCN1C(=O)SC(CC(=O)Nc2ccc(C)cc2)C1=O (stereo not drawn),0.89,-0.24
COCCN(Cc1ccco1)C(=O)C1CCCN(c2ncnc3c2nc2n3CCCCC2)C1 (stereo not drawn),1.46,-0.32
Cc1c(C)c2ccc(OCC(=O)N3CCN(c4ccc(F)cc4)CC3)c(C)c2oc1=O,0.72,2.44
CC(C)c1ccc(CN2CC(C(=O)Nc3ccccc3)CC2=O)cc1 (stereo not drawn),0.01,-1.03
COc1cc(-c2c(-c3cc(OC)c(OC)c(OC)c3)noc2C)ccc1F,0.18,-1.65
Cn1c(=O)c2c(nc(NCc3ccco3)n2CC(O)CO)n(C)c1=O (stereo not drawn),1.68,0.19
COc1ccccc1NC(=O)CC1CCCC1,0.84,-0.07
CCOc1ccc(Cn2nnc(C(=O)Nc3cc(OC)cc(OC)c3)c2N)cc1,0.61,1.25
COC(C(=O)Nc1ccc(Cl)cc1C)c1ccccc1 (stereo not drawn),3.72,2.95
O=C1Nc2ccc(Br)cc2/C1=C/C1CC=CCC1 (stereo not drawn),0.48,-0.23
COc1cccc(-c2nc(-c3ccccn3)no2)c1OC,1.12,-1.37
Cc1ccc(S(=O)(=O)N(C)CCCC(=O)NC(C)(C)C)cc1,0.83,0.8
Cn1c(=O)c2c(nc(SCCN3CCOCC3)n2Cc2ccc(F)cc2)n(C)c1=O,0.88,-2.17
C/C(=N\Nc1cc(-c2ccccc2)nc(-c2ccccc2)n1)c1ccc(O)c(C)c1,0.2,-0.93
CCc1ccc(N(CC(=O)NCCc2ccccc2)C(=O)CCC(=O)Nc2ccccn2)cc1,0.61,0.6
CCCN(CCC)C(=O)c1cn(CC)c2ccc(S(=O)(=O)N3CCCCC3)cc2c1=O,0.33,-1.32
# New compounds follow
SMILES,KCNQ2 enhance,KCNQ2 enhance baseline
Cc1ccc(C(=O)N[C@H](C(=O)Nc2ccc(F)cc2)C(C)C)cc1,1.42,0.02
O=C(Nc1ccc(Cl)cc1)c1cc(S(=O)(=O)N2CCOCC2)cs1,0.58,0.45
Cc1ccc2cc3cc(C(=O)NCCN4CCOCC4)oc3nc2c1,0.84,1.13
O=C(/C=C/c1cn(-c2ccccc2)nc1-c1ccccc1)Nc1ccc(C(=O)O)cc1,0.42,-0.27
O=C1c2cccc3cc([N+](=O)[O-])cc(c23)C(=O)N1c1ccccc1O,0.59,-0.41
CC1Cc2ccccc2N1C(=S)NC(=O)C1(C)CC1(Cl)Cl (stereo not drawn),7.2*,-1.14*
COCC1CCN(C(=O)c2cc(COc3ccc(C)c(C)c3)on2)C1 (stereo not drawn),1.42,0.02
O=C(COC(=O)CSc1ccc([N+](=O)[O-])cc1)NCc1cccs1,1.97,-0.55
Cc1ccc(S(=O)(=O)N(C)CC(=O)OCC(=O)N2CCN(c3ccccc3)CC2)cc1,1.07,0
CCOC(=O)C1CCCN(C(=O)CCn2nc(-c3ccccc3)ccc2=O)C1 (stereo not drawn),0.89,-1.71
